Screening data: PubChem BioAssay, several laboratories
MT1-MMP act inh = blocks activation of human MT1-MMP. 0.061% of 360,000 active. GFP/RFP ratio change, % at 20 µM. HT1080 RFP-PRO-GFP cells, GFP/RFP ratio fluorescence, overnight; percent of plate control window, DMSO zero;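 active = GFP/RFP ratio change of at least 30% with cell ATP level not reduced by more than half and red fluorescence within 50% of control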; also: strong numbers were not always called active
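Assay system: HT1080 RFP-PRO-GFP cells. Benchmarks: DMSO vehicle wells and RFP-L50D-GFP reporter cell wells. Times: overnight cell settling, then overnight compound exposure, 37 °C, 5% CO2. Compound: 20 µM single dose, 1% DMSO. Read-out basis: GFP/RFP fluorescence ratio.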
Env fusion inh = HIV envelope-mediated fusion inhibition. HeLa-JRFL Env/CEM21 cell fusion, luciferase. inhibition, % at 12.3 µM. 1.1% of 360,000 active. AID 651610;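 active = mean replicate inhibition score of at least 50 and every replicate individually at or above 50; inconclusive = only one of the two criteria met; inactive = mean below 50 and not all replicates reaching 50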;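 also: 0% = plate neutral controls and 100% = maraviroc near 300 nM; one replicate is shown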
PABP FP inh = blocks human PABP binding to poly(A) RNA. fluorescence polarization. 1% of 290,000 active. inhibition, % at 35 µM. P11940. AID 2014;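 active = 50% or more with normal probe brightness, or confirmed in later tests; inconclusive = above 50% with abnormal brightness, or retests that disagree; inactive = below 50% or failed in later tests; about a fifth of its hits are not listed in these tables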;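 also: calls also rest on retests at 20 µM and on dose response follow-up; controls were probe without protein and protein plus probe with vehicle; some compounds called inactive have numbers as strong as hits; many hits fall short of the cut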
UUG fidelity = alters start codon recognition fidelity in yeast | activity score, % at 18.7 µM | S. cerevisiae UUG-firefly luciferase reporter, luminescence/redox ratio | AID 602363 | 0.13% of 350,000 active;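 active = replicate mean at a twofold rise or more, about +100% in these data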;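 also: firefly luciferase made from a UUG start codon reports start codon fidelity; reporter light over untreated wells divided by growth signal over untreated wells; some hits fall short of that in this replicate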
eIF4H inh = inhibitors of RNA binding by human eIF4H; 0.94% of 290,000 active; Q15056; eIF4H fluorescence polarization binding assay; inhibition, % at 35 µM;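 active = 50% or more with normal probe brightness, or confirmed in later tests; inconclusive = above 50% with abnormal brightness, or retests that disagree; inactive = below 50% or failed in later tests; about a fifth of its hits are not listed in these tables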;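 also: calls also rest on retests at 20 µM and on dose response follow-up; 0% = protein and probe with vehicle and 100% = probe without protein; strong numbers were not always called active; many hits fall short of the cut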
CSC inhib = blocks cancer stem cells. cancer stem cell-like cells viability, luminescence. inhibition, % at 7.5 µM. 1.1% of 300,000 active;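 active = mean at 75% or more and at least half the replicates too; inconclusive = mean and replicates disagree; tested in HMLE shEcad cells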;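 also: 0% = median of negative and 100% = median of positive control wells; the first replicate is given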
Rce1 inh = blocks yeast Ras-converting enzyme. yeast membranes, quenched prenylated peptide cleavage fluorescence. Q03530. 0.27% of 290,000 active. AID 2563. calls only;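 active = fall in fluorescence gain of 50% or more versus controls, with final raw signal at or below 3038400; inconclusive = same 50% fall but final raw signal above 3038400; inactive = fall in fluorescence gain under 50%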;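 also: plate controls were neutral control wells for no effect and wells lacking membranes for full effect; tested at 10 µM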
Target sequence (Q03530 whole entry, looked up): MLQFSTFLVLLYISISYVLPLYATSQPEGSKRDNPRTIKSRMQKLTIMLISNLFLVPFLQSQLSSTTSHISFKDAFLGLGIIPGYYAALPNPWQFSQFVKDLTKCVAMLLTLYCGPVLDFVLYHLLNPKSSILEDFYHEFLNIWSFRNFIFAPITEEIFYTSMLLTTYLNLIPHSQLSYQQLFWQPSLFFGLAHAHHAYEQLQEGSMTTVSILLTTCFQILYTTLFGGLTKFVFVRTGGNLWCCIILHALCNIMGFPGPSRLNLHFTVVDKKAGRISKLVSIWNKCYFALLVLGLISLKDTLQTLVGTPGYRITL
MT1-MMP act inh RFP = recorded beside MT1-MMP act inh, whose call it bears; RFP signal change, %; measured here: RFP expression control read;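 0 = vehicle wells; hits needed this value within 50% of zero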
An asterisk follows results filed as active; i = inactive; ? = inconclusive; . = no result given.

SMILES | MT1-MMP act inh | MT1-MMP act inh RFP | Env fusion inh | PABP FP inh | UUG fidelity | eIF4H inh | CSC inhib | Rce1 inh
Nn1c(SCc2cccc(Br)c2)nnc1-c1cccnc1 | -1 | 3 | 18 | 3 | . | -11 | 1 | i
O=C1C=C(c2ccc(-c3ccccc3)cc2)C[C@@H](c2ccc(F)cc2)C1 | 5 | -5 | 27 | . | -16 | . | 6 | .
O=C(COC(=O)[C@@H]1CC(O)CN1S(=O)(=O)c1ccc2c(c1)OCCO2)Nc1ccccc1F (stereo partly specified) | 1 | 2 | -7 | -14 | -8 | -4 | -8 | i
Cc1cc(=O)n2[nH]c(-c3ccccc3Cl)cc2n1 | -3 | 6 | . | -8 | -12 | -9 | -3 | i
CC(C)c1nc2sc3c(=O)[nH]cnc3c2c2c1CCC2 | 0 | 1 | -14 | -9 | . | 2 | 15 | i
CCOC(=O)/C=C1\CN(Cc2cc(OC)c(OC)c(OC)c2)S(=O)(=O)c2ccc(C(F)(F)F)cc21 | 6 | -20 | 26 | 22 | -13 | 16 | 1 | i
CNC(=O)c1c(I)c(C(=O)NCC(=O)Nc2c(I)c(C(=O)O)c(I)c(C(=O)NCCO)c2I)c(I)c(N(C)C(C)=O)c1I | 7 | 3 | . | . | 0 | . | -3 | .
Fc1ccccc1CSc1ncnc2sc3c(c12)CCCC3 | -3 | 3 | 24 | -16 | . | -2 | 18 | i
Nc1ccc(Cl)c(NC(=O)c2cccs2)c1 | 9 | 8 | . | 0 | -15 | 3 | 1 | i
COc1ccc(N2CC(NC(=O)N3CCN(c4ccccc4)CC3)CC2=O)cc1 (stereo unspecified) | 3 | 3 | 6 | -3 | . | 28 | -24 | i
Cc1cc(C)nc(SCC(=O)OCC(=O)Nc2nc3ccccc3s2)n1 | -6 | 7 | . | -6 | . | -7 | 1 | i
Cc1ccc(NC(=O)CCNS(=O)(=O)c2cccc3nonc23)cc1Cl | -2 | -2 | 19 | 1 | . | -11 | -6 | i
Cc1cc(O)ccc1N/C=C(\C#N)c1nc2ccccc2o1 | -2 | -1 | -43 | 9 | -20 | 10 | . | i
Cc1cc2nnc(SC3CCCCN(C(=O)c4ccc(F)cc4)C3=O)n2c2ccccc12 (stereo unspecified) | 4 | 9 | -115 | -1 | -21 | 0 | 0 | i
CS(=O)(=O)N(CC(=O)NCC1CCCO1)c1cc(Cl)c(Cl)cc1Cl (stereo unspecified) | 6 | 1 | -9 | 3 | -17 | 1 | 11 | i

A few values from the results shown:
`Cc1cc(=O)n2[nH]c(-c3ccccc3Cl)cc2n1` in MT1-MMP act inh RFP → 6
`CNC(=O)c1c(I)c(C(=O)NCC(=O)Nc2c(I)c(C(=O)O)c(I)c(C(=O)NCCO)c2I)c(I)c(N(C)C(C)=O)c1I` in UUG fidelity → 0

Continued:
SMILES | MT1-MMP act inh | MT1-MMP act inh RFP | Env fusion inh | PABP FP inh | UUG fidelity | eIF4H inh | CSC inhib | Rce1 inh
N#CCCN(C(=O)COC(=O)c1n[nH]c2ccccc12)c1ccccc1 | -2 | 0 | . | . | -20 | . | -9 | .
CC1=CC(C)C2(CO)COC(c3ccc(O)cc3)C1C2C (stereo unspecified) | 0 | 1 | 8 | -2 | . | 4 | -6 | i
Cc1ccc(Cn2c(=N)c(C(=O)NC3CCCCC3)cc3c(=O)n4ccccc4nc32)cc1 | -4 | -11 | -15 | -6 | 3 | -14 | -5 | i
CC(=O)N1CCC(CCCC2CCN(C(C)=O)CC2)CC1 | 4 | 2 | 7 | . | 8 | . | -6 | i
CC(=O)Nc1cccc(OCC(=O)NC(C)C(C)C)c1 (stereo unspecified) | 0 | 3 | -34 | 10 | -2 | 0 | 0 | i
Cc1ccc(C)c(C(=O)NCCN(C)C)c1 | -2 | 1 | 0 | -4 | -12 | -7 | -8 | i
O=C(COc1ccc(F)cc1Br)Nc1ccccc1N1CCOCC1 | 24 | -10 | 12 | . | -17 | . | . | .
Cn1c(=O)[nH]c(=O)c2c1nc(N1CCN(CCO)CC1)n2Cc1ccccc1Cl | -1 | -4 | 4 | 2 | 3 | 0 | . | i
CC1CCN(S(=O)(=O)c2ccc3[nH]c(=O)ccc3c2)CC1 | 4 | 7 | 12 | -3 | -17 | -10 | -9 | i
CC1(c2ccc(OC(F)F)cc2)NC(=O)N(CC(=O)Nc2ccc(S(N)(=O)=O)cc2)C1=O (stereo unspecified) | -3 | -2 | 10 | -7 | . | 4 | -20 | i
COc1cc(/C=N/NC(=O)C(NC(=O)c2ccccc2)c2n[nH]c(=O)c3ccccc23)ccc1OCC(N)=O (stereo unspecified) | 1 | 8 | -17 | 0 | 19 | -6 | -11 | i
COc1ccc(CNC(C)CCc2ccccc2)cc1 (stereo unspecified) | -1 | 2 | 14 | -14 | -20 | 35 | 4 | i
c1ccc(-c2ccccc2-c2nc(-c3ccncc3)no2)cc1 | -5 | -3 | . | -6 | -24 | -6 | 14 | i
CCN1C(=O)[C@H]2[C@H]3[C@H](O)[C@H](O)C/C(=N\O[C@H](C)c4cn([C@H](CO)Cc5ccccc5)nn4)[C@@H]3CC[C@H]2C1=O | . | . | . | 10 | . | 0 | 3 | i
Cc1cc(C(=O)NCCCC(=O)O)c(C)o1 | 1 | 4 | -6 | 7 | -7 | -2 | -2 | i
CC(C)(Cc1ccc(O)cc1)NC(=O)SCc1ccccc1 | -1 | -3 | -1 | 15 | -14 | 1 | 20 | i
Cc1cccc(C(=O)NCC(=O)Nc2ccncc2)c1 | 8 | -4 | -4 | . | -18 | . | -5 | i
CC(=O)c1c(COC(=O)c2ccco2)nc2ccccc2[n+]1[O-] | -1 | 5 | . | 9 | -7 | 31 | -7 | i
COC/C=C/C1=CC2=CC(=O)C(C)(OC(=O)c3cnc4ccccc4n3)C(=O)C2=CN1C(CO)CO (stereo unspecified) | -3 | -2 | -17 | 28 | -9 | 39 | -2 | i
O=c1[nH]c2ccccc2cc1CN(Cc1cccnc1)S(=O)(=O)c1ccc([N+](=O)[O-])cc1 | -2 | -3 | 2 | 0 | -24 | 1 | -8 | i
CCOC(=O)c1ccc(N2C(=O)C(O)=C(C(C)=O)C2c2ccccn2)cc1 (stereo unspecified) | 1 | 0 | ? | 4 | -8 | -9 | . | i
CCOc1ccc(N2C(=O)C3C(c4ccccc4F)NN(C(=O)c4ccc(C)cc4)C3C2=O)cc1 (stereo unspecified) | -3 | 4 | -13 | 1 | -6 | 0 | -5 | i
COc1ccc(NC(=O)CN2C(=O)COc3ccc(S(=O)(=O)N4CCOCC4)cc32)cc1Cl | 3 | 1 | -4 | . | -5 | . | -15 | i
Cc1c[n+]([O-])ccc1[N+](=O)[O-] | 2 | 1 | 1 | . | 3 | . | . | .
CCOC(=O)c1sc(NC(=O)C2CC(=O)N(c3ccc(OCC)cc3)C2)nc1C (stereo unspecified) | 1 | -1 | 8 | -2 | -16 | -8 | 3 | i
NC(=O)CC(NC(=O)c1cccc(Br)c1)c1ccc(N2CCN(c3ccc(F)cc3)CC2)c([N+](=O)[O-])c1 (stereo unspecified) | 1 | 0 | -27 | 4 | -3 | -6 | -1 | i
COc1ccc([C@H]2CC(=O)C=C(c3ccc4cc[nH]c4c3)C2)cc1 | 7 | 3 | 4 | . | -8 | . | 1 | .
C[N+]1(CCn2ccc3ccccc32)CCCCC1 | -2 | 2 | 8 | 2 | . | 3 | -7 | i
CCOC(=O)c1c(CN2CCC(C)CC2)oc2ccc(OC)cc12 | -1 | 1 | ? | 10 | -1 | -4 | 13 | i
COc1ccc(-n2c3nc4ccccc4nc3c3c(=N)oc(C)nc32)cc1 | -7 | 2 | . | -10 | -12 | 1 | 2 | i
Cc1occc1C(=O)NNC1=CC(=O)CC(C)(C)C1 | 5 | 8 | -93 | 4 | -16 | 2 | 1 | i
CC1=C(C(=O)OCc2ccccc2)C(c2ccccc2OC(F)F)NC(=O)N1 (stereo unspecified) | . | . | . | -8 | -7 | -2 | -2 | i
Cc1noc(C)c1C(=O)N1CCC(C(=O)c2ccccc2)CC1 | 0 | -1 | 3 | -1 | -15 | -3 | -6 | i
COc1ccc(CNS(=O)(=O)c2ccc3c(c2)N(C(C)=O)CC(C)S3)cc1 (stereo unspecified) | -2 | -22 | 13 | 18 | 0 | 2 | -17 | i
CCCn1c(SCC(=O)N2CCOCC2)nnc1-c1ccncc1 | 0 | 1 | -2 | 9 | 6 | 7 | -7 | i
Cc1ccc(C)c(NC(=O)CCc2nnc3ccc(NCc4ccco4)nn23)c1 | 0 | 4 | 4 | 1 | -23 | 32 | 0 | i
Cc1ccc(S(=O)(=O)NCc2ccccc2)cc1C(=O)NCC(C)(C)N1CCOCC1 | 5 | 3 | 3 | . | 2 | . | 3 | i
Cc1cc(C(=O)CSc2nnc(Cc3ccccc3)o2)c(C)n1Cc1ccc2c(c1)OCO2 | 1 | 0 | -7 | 13 | -15 | 10 | -4 | i
O=C(c1ccco1)N1CCN(S(=O)(=O)c2cccc([N+](=O)[O-])c2)CC1 | 0 | 2 | -6 | 2 | . | -17 | -16 | i
O=C(NCC1CCCO1)C1CC(=O)N(C2CCCCCC2)C1 (stereo unspecified) | 9 | -3 | . | -3 | 25 | -10 | 14 | i
CN1CCN(c2nnc(-c3cccs3)c3ccccc23)CC1 | -3 | -4 | 6 | -4 | . | -10 | -4 | i
CCOC(=O)c1ccc(NC(=O)CN2C(=O)CN(C(C)=O)C2=S)cc1 | 1 | 1 | -7 | 9 | -4 | 2 | -4 | i
Cn1cccc1-c1cc(C(=O)N/N=C/c2ccccc2Cl)[nH]n1 | 3 | -1 | -55 | 2 | -18 | -7 | -11 | i
COc1ccc(N(CC(=O)N2c3ccccc3CC2C)S(=O)(=O)c2c(C)nn(C)c2C)cc1 (stereo unspecified) | 2 | -3 | -7 | 6 | -3 | -5 | -3 | i
O=C(NCCN1CCCCC1)Nc1cccc(F)c1 | 0 | -1 | 2 | 5 | -8 | -6 | 8 | i
CCCOc1ccc(C(=O)N2CCCC2C(=O)O)cc1 (stereo unspecified) | 1 | 8 | . | 17 | . | -4 | 20 | i
NCC12CC3CC(C1)CC(CN)(C3)C2 | -3 | 3 | 25 | -3 | 2 | 0 | -7 | i
NS(=O)(=O)c1ccc(NC(=O)COC(=O)COc2ccc(Cl)cc2)cc1 | 1 | 1 | 1 | 11 | . | 13 | -1 | i
Cc1cc(C)cc(NC(=O)/C=C/c2ccc([N+](=O)[O-])s2)c1 | -39 | -2 | -42 | -2 | . | -1 | 18 | i
CC(=O)c1ccc(S(=O)(=O)Nc2ccc(C(=O)NCC(c3cccs3)N3CCOCC3)cc2)cc1 (stereo unspecified) | . | . | -7 | . | -10 | . | 4 | i
CCCCOc1cc(CC2CNC(=O)N2)ccc1OC (stereo unspecified) | 4 | 5 | -177 | . | -8 | . | -13 | i
OCCC1CN(CCCn2cccn2)CCN1Cc1ccccc1 (stereo unspecified) | -8 | 4 | -9 | -6 | 7 | 4 | 7 | i
Cc1nc(CNS(=O)(=O)c2ccc(Oc3ccccc3)cc2)cs1 | 11 | -24 | . | 0 | 2 | -3 | -6 | i
COc1cc(C)ccc1OCCOCCOc1ccccc1Br | -1 | 4 | . | 2 | . | -5 | 2 | i
Cc1cc(OCC(=O)NC(C)C)ccc1Cl | 0 | 2 | 15 | -16 | -16 | -9 | -1 | i
CCOC(=O)C(C)Sc1ncnc2c1c(-c1ccccc1)cn2-c1ccc(OC)cc1 (stereo unspecified) | -9 | -8 | 19 | -6 | -19 | -7 | -5 | i
